# Screens as filed in PubChem.
# miR-21 FLuc: miR-21 reporter, rising signal. Potency, µM (titrated, usually from 38.3 µM), for inactives: at the top dose reporter change, positive = more light. 340,000 tested, under 10 active. HeLa miR-21 FLuc reporter, luciferase, 48 h; active = well fitted rising curve with a large enough effect; inconclusive = small, poorly fitted or top-dose-only effect; inactive = no such curve, though single readings can be large or run the other way;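 further: % of control where 0% means no effect; miR-21 action dims this reporter so a rising signal means less miR-21 action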
#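 Luminescence from a firefly luciferase reporter carrying a miR-21 binding site downstream, stably expressed under a CMV promoter in HeLa cells that make miR-21 endogenously, reports miRNA modulation after 48 h compound exposure up to approximately 40uM final.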
# Rango dissoc inh: inhibitors of RanGTP-induced Rango-importin beta complex dissociation; O95149+P62826; Biochemical FRET Rango-importin beta, RanGTP-induced dissociation; Potency, µM (titrated, usually from 46.1 µM), for the others: at the top dose activity change, negative = inhibition; hit rate 0.071% among 340,000; active means falling FRET ratio curve, often poorly fitted, with flat reads before Ran was added; inconclusive means other falling curves, or compound fluorescence or quenching; inactive means flat or rising ratio curve;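 further: potency means the concentration at half of the fitted maximal effect; % of control where 0% means no effect; nearly all actives have a fitted effect of over 45% in size; -100% = wells without RanGTP and RCC1; the record marks most hits as doubtful in a second field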
#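 FRET read at 45 min, room temperature: inhibitors block the CFP/YFP signal rise when RanGTP (0.6 uM Ran, 2 mM GTP, 0.2 uM RCC1) frees Rango (0.1 uM) from importin beta (0.25 uM). Pre-read after 5 min compound exposure flags interference.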
# GLA inh pH 4.5: blocks human alpha-galactosidase A at pH 4.5 | P06280 | purified enzyme, 4-MU-alpha-Gal fluorescence, pH 4.5 | activity change, negative = inhibition, % at 105 µM | 230,000 tested, under 10 active; inconclusive = small, poorly fitted or top-dose-only inhibition, or a rising curve; inactive = flat fitted curve, though single readings scatter; no compound was filed as active;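 further: 0% = full activity with enzyme and -100% = basal without enzyme; dose as in the result columns while the protocol names 77 µM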
# Target sequence (P06280 whole entry, looked up): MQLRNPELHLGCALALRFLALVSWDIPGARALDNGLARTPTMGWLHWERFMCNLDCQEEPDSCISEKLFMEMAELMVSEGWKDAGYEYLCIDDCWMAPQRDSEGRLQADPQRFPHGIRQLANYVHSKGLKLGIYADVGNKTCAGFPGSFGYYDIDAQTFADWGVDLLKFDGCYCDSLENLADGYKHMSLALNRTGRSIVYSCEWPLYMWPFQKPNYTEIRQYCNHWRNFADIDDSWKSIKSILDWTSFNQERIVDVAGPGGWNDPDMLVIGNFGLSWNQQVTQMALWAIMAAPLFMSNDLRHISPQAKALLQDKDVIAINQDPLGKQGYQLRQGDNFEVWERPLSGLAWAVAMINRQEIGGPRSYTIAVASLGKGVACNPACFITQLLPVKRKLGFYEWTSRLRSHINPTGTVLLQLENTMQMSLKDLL
# Rango complex inh: inhibitors of Rango-importin beta complex formation; Q14974; Rango CFP/YFP FRET sensor + importin beta, 45 min; Potency, µM (titrated, usually from 92.2 µM), without a hit: at the top dose inhibition of complex formation; hit rate 0.031% among 340,000; AID 540263; active = rising FRET ratio curve, often small or poorly fitted; inconclusive = mostly compound fluorescence or quenching in the first reads; inactive = flat curves in all reads;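 further: potency means the concentration at half of the fitted maximal effect; 0% = DMSO wells and 100% = buffer wells lacking importin beta; nearly all actives have a fitted effect of over 15% in size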
#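 Inhibition scored from the CFP 486 nm/YFP 530 nm FRET ratio 45 min after adding 0.125 microM importin beta to 50 nM Rango biosensor preincubated 5 min with compound (room temperature, PBS with DTT, Tween-20, BSA). No-importin wells as positive control.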
# Active calls of the source: *; ? = inconclusive; . = no result given; & = joins results of further samples; [ ] = remark or other dose.
Rango dissoc inh	GLA inh pH 4.5	Rango complex inh	miR-21 FLuc	molecule
2%	-3	1.7%	-11%	Cc1onc(-c2c(F)cccc2Cl)c1C(=O)NCC1COc2ccccc2O1 (stereo unspecified)
2%	-17	-0.5%	-3%	COc1ccc(O)c(C2(O)C(=O)c3ccccc3C2=O)c1
6%	.	-2.9%	0%	CCCN(CC(=O)Nc1ccccc1OC)C(=O)c1cnc(Cl)c(Cl)c1
4%	-6	-2.7%	-9%	C/C(=N\NC(=S)NCc1ccccc1)c1ccc(Br)cc1
-8%	-2	-14%	17%	CCO[C@@H]1OC(C(=O)N2CCN(Cc3ccccc3)CC2)=C[C@H](c2cn(C(C)=O)c3ccccc23)[C@H]1CCCO
18%	-9	3.3%	-44%	CCCCSc1nc(C)c(C(C)=O)cc1C#N
-22%	-16	?	-17%	CCC(=O)Nc1ccc(C(=O)CSc2nc3ccccc3cc2CC)cc1
20%	3	7.4%	-42%	O=C(c1cc2ccccc2oc1=O)N(Cc1ccc(F)cc1)C1CCS(=O)(=O)C1 (stereo unspecified)
3%	-15	0.3%	0%	Cc1ccc(-n2nnnc2CN2CCCCC2)cc1
-27%	-13	?	0%	COc1ccc(-n2c(SCC(=O)Nc3nccs3)nc3sc4c(c3c2=O)CCN(C)C4)cc1
-10%	-2	-2.1%	-3%	CCOc1ccc(C2CC(=O)NC3=C2C(=O)CCC3)cc1 (stereo unspecified)
7%	3	1.7%	3%	CCn1cc(C(=O)O)c(=O)c2cc(F)c(N3CCN(C(=S)NC(=O)c4ccccc4F)CC3)cc21
-16%	.	4.4%	.	O=C(COC(=O)/C=C/c1ccc(Cl)cc1)Nc1ccc2[nH]c(=O)[nH]c2c1
-2%	8	-6.0%	-9%	O=C1CCCC2=C1C(c1ccco1)Nc1ccc3ccccc3c12 (stereo unspecified)
-4%	5	-1.2%	-2%	CCN(CC)c1c([N+](=O)[O-])c(=O)sc2ccccc12
-17%	5	-1.5%	-11%	COc1cccc(-c2nc(CS(=O)(=O)CC(=O)NCc3ccccc3)c(C)o2)c1

# Of the compounds above, 3 contain four or more nitrogen atoms.
Rango dissoc inh	GLA inh pH 4.5	Rango complex inh	miR-21 FLuc	molecule
3%	-15	0.3%	0%	Cc1ccc(-n2nnnc2CN2CCCCC2)cc1
-27%	-13	?	0%	COc1ccc(-n2c(SCC(=O)Nc3nccs3)nc3sc4c(c3c2=O)CCN(C)C4)cc1
7%	3	1.7%	3%	CCn1cc(C(=O)O)c(=O)c2cc(F)c(N3CCN(C(=S)NC(=O)c4ccccc4F)CC3)cc21

# Reformatted field by field: entries from further up
> CCn1cc(C(=O)O)c(=O)c2cc(F)c(N3CCN(C(=S)NC(=O)c4ccccc4F)CC3)cc21
- Rango dissoc inh: 7%
- GLA inh pH 4.5: 3
- Rango complex inh: 1.7%
- miR-21 FLuc: 3%

> O=C(COC(=O)/C=C/c1ccc(Cl)cc1)Nc1ccc2[nH]c(=O)[nH]c2c1
- Rango dissoc inh: -16%
- GLA inh pH 4.5: .
- Rango complex inh: 4.4%
- miR-21 FLuc: .

# New compounds follow:
Rango dissoc inh	GLA inh pH 4.5	Rango complex inh	miR-21 FLuc	molecule
-12%	-10	3.7%	-12%	CCc1c(C(=O)Nc2nnc(C3CC3)s2)csc1C
-10%	-4&-3	-0.6%	.	CCC1=C(C)CN(C(=O)NCCc2ccc(S(=O)(=O)NC(=O)NC3CCC(C)CC3)cc2)C1=O (stereo unspecified)
-5%	.	-2.3%	.	Cn1c(Cc2cccs2)nnc1SCC(=O)Nc1ccccc1F
17%	.	1.1%	.	COc1cc(C(=O)NCC2CCCN2S(=O)(=O)c2cccs2)cc(OC)c1OC (stereo unspecified)
-28%	.	3.2%	-1%	COC(=O)C1=C(CS(=O)(=O)c2ccc(OC)c(OC)c2)NC(=O)NC1c1ccc(O)c(OC)c1 (stereo unspecified)
5%	.	1.4%	.	COc1ccc(S(=O)(=O)N2CCCCC2)cc1NC(=O)Cc1cccs1
2%	.	0.2%	.	CCOC(=O)N1CCN(C(=O)COC(=O)CSc2ccc([N+](=O)[O-])cc2)CC1
18%	-15	0.9%	-2%	CN(C(=O)COC(=O)c1ccc(=O)n(Cc2ccccc2)n1)c1ccccc1
0%	3	-1.1%	-7%	C#CCSc1n[nH]c(-c2ccco2)n1
-11%	0	-1.9%	-5%	Cc1ccsc1C1C(C(=O)O)c2ccccc2C(=O)N1C (stereo unspecified)
-9%	-16	3.3%	1%	CCCc1cc(NCCCn2ccnc2)n2nc(C)c(-c3ccccc3)c2n1
-7%	-1	3.1%	-7%	Cc1cc2cc(CNC(=O)Cc3ccc([N+](=O)[O-])cc3)ccc2n1C
1%	1	0.9%	1%	O=C(CCC(=O)N(CC(=O)NC1CCCC1)Cc1ccc2c(c1)OCO2)Nc1ccccn1
9%	0	-4.4%	-3%	CCOC(=O)c1ccc(NS(=O)(=O)c2cnc[nH]2)cc1
10%	.	-0.9%	-6%	NC(=O)c1nsc(C(=O)N(CC(=O)NC2CCCCC2)c2cccc(F)c2)c1N
4%	0	0.2%	-14%	CCSc1nc(C2CC2)cc(-c2cccs2)c1C#N

# Record cards, from the list above. Order of screens: Rango dissoc inh | GLA inh pH 4.5 | Rango complex inh | miR-21 FLuc
# Entry for CCSc1nc(C2CC2)cc(-c2cccs2)c1C#N = 4% | 0 | 0.2% | -14%
# Entry for CCCc1cc(NCCCn2ccnc2)n2nc(C)c(-c3ccccc3)c2n1 = -9% | -16 | 3.3% | 1%
# Entry for Cc1cc2cc(CNC(=O)Cc3ccc([N+](=O)[O-])cc3)ccc2n1C = -7% | -1 | 3.1% | -7%

# Next compounds follow:
Rango dissoc inh	GLA inh pH 4.5	Rango complex inh	miR-21 FLuc	molecule
2%	0	-0.6%	-1%	N#C/C=C(/N)c1ccc(Br)cc1
4%	-8	-2.1%	13%	CC(C)(C)C(=O)NNC(=O)c1cc(C(C)(C)C)nn1Cc1ccccc1
0%	0	-2.3%	0%	Cn1c2c(c(=O)n3ncnc13)CCCC2
-12%	.	6.0%	-1%	CC(C)c1nc(CNC(=O)C2CCC(=O)N(Cc3ccc(Cl)cc3)C2)no1 (stereo unspecified)
-20%	.	1.7%	.	CCc1ccc(N2CC(C(=O)OCC(=O)NNC(=O)c3ccccc3)CC2=O)cc1 (stereo unspecified)
-1%	-10	3.5%	-7%	CCCN(CCO)Cc1cccc(Oc2ccccc2)c1
10%	-9	-2.3%	-12%	Cc1ccccc1Nc1nc(N)nc(COC(=O)C(NC(=O)c2ccco2)C(C)C)n1 (stereo unspecified)
-8%	4	0.2%	?	CCCCCCn1c2c(c(=N)c3c1CCC3)CCC2
-10%	5	-6.2%	-9%	CNC(=O)C(=O)N/N=C/c1ccc(Br)cc1
-4%	3	-3.3%	-3%	COc1ccc(-c2nnc(NC(=O)CSc3ccc(C)cc3)s2)cc1OC
1%	1	0.9%	1%	Cc1cc(C)c2c(=O)n(CC(=O)Nc3cccc(Cl)c3C)sc2n1
13%	-10	-3.8%	-9%	COc1ccc(-n2c(C)cc(C(=O)COC(=O)c3cc(NC(=O)c4cccs4)c(OC)c(OC)c3)c2C)cc1
9%	-1	0.1%	0%	CC(=O)CCN1CCOCC1
0%	.	-0.2%	-2%	COC(=O)c1cc(S(=O)(=O)NCc2cc(OC)c(OC)c(OC)c2)cn1C
0%	3	-1.2%	-8%	Cc1cc(C)c2cc(C(c3nnnn3CC3CCCO3)N3CCN4CCCC4C3)c(=O)[nH]c2c1 (stereo unspecified)
-7%	-2[21.1 µM]	-0.6%	-3%	O=C(NCc1n[nH]c(=S)n1-c1ccccc1)c1ccc(S(=O)(=O)N2CCCCC2)cc1
-26%	-11&-3	?	-6%	CC1(OC(=O)C2CCCC2)C(=O)C=C2C=C(c3ccsc3)N(Cc3ccc4c(c3)OCO4)C=C2C1=O (stereo unspecified)
-1%	11	-2.4%	-10%	COc1ccc2c(c1OC)C(=O)N(c1ccc(C)cc1)C2=O
17%	-7	1.1%	-13%	Cc1ccc(C(=O)NC(C)c2ccc3c(c2)OCO3)s1 (stereo unspecified)
-3%	.	-0.1%	-1%	Cn1c(=O)c(=O)n(C)c2cc(N3CCCC3)c(NS(=O)(=O)c3ccc(Cl)cc3)cc21
-18%	.	-4.2%	?	CCOC(=O)c1c(NC(=O)C(NCCN(C)C)c2ccccc2)sc2c1CCCC2 (stereo unspecified)
10%	2	-5.1%	-10%	CCOc1ccccc1Nc1ccc(C(=O)O)cc1[N+](=O)[O-]
2%	-1	-0.2%	-5%	CCC(=O)NCCSc1c[nH]c2ccccc12
?	-8	?	1%	Cc1cccc(C)c1Nc1c(-c2ccsc2)nc2ncccn12
-2%	.	-0.1%	-1%	CC(C)(C)C(=O)NNC(=O)C1CC1(c1ccccc1)c1ccccc1 (stereo unspecified)
0%	-1	1.0%	-10%	CC(C)C(NC(=O)OCc1ccccc1)C(=O)NCC(=O)OC(C)(C)C (stereo unspecified)
13%	7	-1.0%	-3%	CCNC(=S)NC1CC2CCCC(C1)N2Cc1ccco1 (stereo unspecified)
9%	-5	-0.7%	-4%	O=C1c2cc([N+](=O)[O-])cc3cc([N+](=O)[O-])cc(c23)C(=O)N1c1ccccn1
17%	-1	-4.2%	-2%	Cc1cc(C)n(-c2ccc(C(=O)OCC(=O)NC(c3ccccc3)c3ccccc3)cc2)n1
1%	-1	0.0%	1%	COc1ccc(N2CCCn3c2nc2c3c(=O)n(CCc3ccccc3)c(=O)n2C)cc1
15%	.	-0.5%	.	O=C(c1cccc(S(=O)(=O)NCc2ccccc2)c1)N1CCN(c2ccccc2)CC1
-16%	2	-4.7%	-3%	CC(C(=O)O)N1C(=O)CSC1=S (stereo unspecified)
1%	-11	0.8%	25%	CCCN1C(=O)c2cc(C(=O)Nc3ccccc3OC)ccc2C1Nc1ccccc1OC (stereo unspecified)
-3%	6	-1.9%	-1%	OCC#Cc1ncc(C(F)(F)F)cc1Cl
-1%	.	1.0%	.	COc1cc2cnc(-c3ccccc3F)cc2cc1OC
-1%	-8	1.4%	5%	CCCCCCCCCCS(=O)(=O)N/N=C/c1ccccc1OC
-18%	1	?	0%	O=C1NC(c2ccccc2)=NC1(NS(=O)(=O)c1ccc(Cl)cc1)C(F)(F)F (stereo unspecified)
10%	-4	5.5%	-5%	COc1cccc(CN(C)C(=S)Nc2ccc(C)c(C)c2)c1
7%	.	2.0%	-1%	CCC(Sc1nc2ncccc2[nH]1)C(=O)NC1CCCC1 (stereo unspecified)
9%	3	-2.5%	-9%	CCNC(=O)/C(=C\C=C\c1ccccc1)NC(=O)c1ccc(Br)o1
8%	.	4.9%	.	CCOc1cc2[nH]c(=O)n(CC3CCC(C(=O)NCCC(C)C)CC3)c(=O)c2cc1OCC (stereo unspecified)
6%	1	-2.0%	-30%	COc1cccc(N2C(=O)CC(N3CCc4ccccc43)C2=O)c1 (stereo unspecified)
7%	.	?	.	Cc1cc(C)cc(NC(=O)CSc2nnc(CNC(=O)c3ccco3)n2C)c1
16%	-1	-2.4%	-3%	CCOC(=O)NC(NC(=S)Nc1ccc(OC)cc1)C(Cl)(Cl)Cl (stereo unspecified)
-3%	.	1.0%	.	Nc1ccc(C#Cc2ccc3sc4ccccc4c(=O)c3c2)cc1
5%	6	3.3%	0%	COC(=O)c1ccccc1NC(=O)c1ccccc1SC
-8%	.	2.4%	0%	CCCCn1c(=O)[nH]c(=O)c2c1nc(-c1ccccn1)n2CC
0%	-6	2.1%	-15%	COc1ccc(N(CC(=O)Nc2ccccc2SC)S(C)(=O)=O)cc1OC
-17%	-10	-0.8%	13%	CC(C)(C)c1ccc(C(=O)Nc2ccc(CN3CCS(=O)(=O)CC3)cc2)cc1
13%	-6	-1.8%	1%	COc1ccc([C@H]2C=C3CN(C(=O)OC(C)(C)C)S(=O)(=O)[C@H]3C[C@H]2OC(=O)c2ccc(C(F)(F)F)cc2)cc1
.	-13	.	-1%	COc1ccc(N2C(=O)N(Cc3ccccc3F)c3ccccc3S2(=O)=O)cc1

# This is a subset; count on the stated rates, not on these rows.
